B2AR ag = beta2AR agonists driving receptor internalization, primary screen, cell-based, FAP fluorogen, flow cytometry. AID 504454, 2011. 0.43% of 340,000 active. Beta-2 adrenergic receptor (Homo sapiens), P07550. response, % (concentration not given with the values). Am2.2-beta2AR cells; reference of the scale not given here;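 active = response above a set limit, near 3 SD of response in nonfluorescent compounds, cut at about 42% in these data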;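 also: stock transfer was 100 nL into about 11 µL; a reference agonist was the positive control; negative values mostly stem from fluorescent compounds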
Target sequence (P07550 whole entry, looked up): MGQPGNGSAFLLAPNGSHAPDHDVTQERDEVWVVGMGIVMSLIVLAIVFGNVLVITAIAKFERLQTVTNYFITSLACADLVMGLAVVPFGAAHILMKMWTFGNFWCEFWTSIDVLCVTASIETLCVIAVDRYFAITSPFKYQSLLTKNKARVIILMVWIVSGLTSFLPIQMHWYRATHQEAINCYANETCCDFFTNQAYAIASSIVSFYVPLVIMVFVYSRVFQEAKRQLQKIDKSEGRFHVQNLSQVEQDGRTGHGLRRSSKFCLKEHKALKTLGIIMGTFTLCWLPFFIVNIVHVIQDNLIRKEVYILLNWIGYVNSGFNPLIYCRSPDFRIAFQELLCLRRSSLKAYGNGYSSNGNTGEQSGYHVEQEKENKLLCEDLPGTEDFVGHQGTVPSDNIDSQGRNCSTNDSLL
UCH37 inh = inhibitors of human UCH37 deubiquitinase, primary screen, biochemical, Ub-AMC cleavage, fluorescence | AID 588478, 2011 | inhibition, % (no concentration beside the values) | purified proteasome/UCH37 | 0.33% of 330,000 active;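 active = mean of two replicates above 20%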;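 also: 0% = compound-free wells with enzyme and 100% = wells lacking proteasome; stock transfer was 100 nL into about 20 µL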
Target sequence (Q9Y5K5 whole entry, looked up): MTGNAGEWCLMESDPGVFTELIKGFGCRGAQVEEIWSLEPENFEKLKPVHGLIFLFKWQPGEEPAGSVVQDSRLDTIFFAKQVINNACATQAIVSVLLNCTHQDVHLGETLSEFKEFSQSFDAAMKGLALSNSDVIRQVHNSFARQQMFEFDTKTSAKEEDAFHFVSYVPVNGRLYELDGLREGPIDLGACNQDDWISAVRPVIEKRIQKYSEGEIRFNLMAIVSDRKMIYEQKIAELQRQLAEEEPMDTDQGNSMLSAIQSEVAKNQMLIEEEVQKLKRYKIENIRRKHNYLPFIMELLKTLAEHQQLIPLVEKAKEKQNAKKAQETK
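Reagent: Ub-AMC substrate; assay system: Proteasome-associated human UCH37 deubiquitinase; controls: no-proteasome and no-compound wells; read-out: % inhibition of Ub-AMC cleavage fluorescence; timing: 30 min preincubation with enzyme, 25 min cleavage at room temperature; signal: AMC fluorescence from Ub-AMC cleavage, excitation 355 nm, emission 460 nm; buffer or medium: Tris-HCl pH 7.4 plus ovalbumin, ATP-MgCl2, DTT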
HNF4A DNA FP = change in binding of human HNF4A to DNA, primary screen, biochemical, fluorescence polarization, FITC-DNA; 1 h; activity change, % at 10 µM; 0.3% of 360,000 active; in the data active = activity change above about 30%, passing the limit was not always enough;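 also: controls were the assay level and a saturating level of protein; the project sought stronger binding though the title names inhibitors; some compounds called inactive have numbers as strong as hits; positive values seem to mean higher polarization but the record does not say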
Ecoli growth = E. coli growth inhibition, primary screen, OD600. Escherichia coli growth, 23 h; stronger effect = lower value. 0.21% of 330,000 active. OD600 absorbance (test concentration not listed);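 active = OD600 absorbance below the run mean of sample wells minus 3.6 SD, in any replicate, cut at about 0.56 in these data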;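 also: stock transfer was 300 nL into about 60 µL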
FGF22 binding = binders of human FGF22 protein, primary screen, FGF22 synaptogenesis inhibitor project, biophysical, thermal shift, single point; 1.5% of 340,000 active; recombinant FGF22 thermal shift, SYPRO orange fluorescence; percent of sucrose octasulfate shift, DMSO zero; calls only at 9.99 µM; Fibroblast growth factor 22 (Homo sapiens), Q9HCT0; AID 651658, 2012;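 active = melting point raised past a set limit in the mean and every replicate; three in four hits are not shown here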
Target sequence (Q9HCT0 whole entry, looked up): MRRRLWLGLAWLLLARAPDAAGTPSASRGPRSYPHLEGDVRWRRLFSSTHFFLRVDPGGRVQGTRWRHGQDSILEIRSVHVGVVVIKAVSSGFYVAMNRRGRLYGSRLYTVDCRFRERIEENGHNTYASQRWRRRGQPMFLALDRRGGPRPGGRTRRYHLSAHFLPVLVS
ALR H2O2 inh = inhibitors of human ALR sulfhydryl oxidase, primary screen, biochemical, H2O2 detection, HRP-luminol luminescence, single point; 3.8% of 290,000 active; inhibition, % (test concentration not listed); purified ALR, DTT oxidation; AID 485317, 2010;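 active = mean and each replicate at 75% or more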;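 also: stock transfer was 7.5 nL into about 7.5 µL; 0% = neutral wells and 100% = wells with inactivated enzyme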
Ecoli rRNA inh = reduced GFP signal of wild-type E. coli, primary screen, bacterial rRNA inhibitor project, GFP/RFP fluorescence, OD600, single point; E. coli WT GFP vs humanized-ribosome RFP mutants, 24 h; stronger effect = lower value; DMSO median 0, no signal -100; 1.6% of 350,000 active; AID 720706, 2013; GFP signal change (wild-type ribosome), % (test concentration not listed);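 active = significant combined selectivity score with lowered wild-type GFP, culture density cut under 30%, mutant RFP and density less affected; inactive = any of these conditions unmet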; also: one replicate is shown; some compounds called inactive have numbers as strong as hits
Ecoli rRNA inh OD600 = also measured in Ecoli rRNA inh; calls as there; OD600 change, %; measured here: OD600 growth;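 optical density of the mix in the first replicate; 0 = DMSO median and -100 = no signal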
Ecoli rRNA inh RFP = further read-out of Ecoli rRNA inh, marked with its call; RFP signal change, %; measured here: RFP humanized mutant strains;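 first replicate; 0 = DMSO median and -100 = no signal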
* marks the source's active call; other numbers are inactive results; i = inactive; . = no result given; & = joins results of further samples. These rows are one share of the data (hit frequency here may not be typical).

SMILES	B2AR ag	UCH37 inh	HNF4A DNA FP	Ecoli growth	FGF22 binding	ALR H2O2 inh	Ecoli rRNA inh	Ecoli rRNA inh OD600	Ecoli rRNA inh RFP
COC(=O)C1=C(C)N(CC2CC2)C(=O)N[C@H]1c1ccccc1	-5	-1.0	-6.5	.	i	-10	25	16	2.0
Cc1c(C(=O)C(=O)N2CCCc3ccccc32)c2ccccc2n1C	-11	6.8	1.8	0.69	.	.	.	.	.
c1ccc(-c2nc(-c3cccs3)[nH]c2-c2ccccc2)cc1	-1	-81	-5.1	0.76	i	33	10	-10	-6.0
CCCC(=O)Nc1cc2c3c(c1)CCN3C(=O)CC2	-14	4.4	3.6	0.68	i	.	0	8	3.8
O=C(O)c1ccc(-n2nnnc2SCc2cccc(Br)c2)cc1	2	4.7	-1.2	0.7	i	-5	-11	-25	-3.8
COc1cc(NC(=O)c2cccs2)c(C(=O)OCC(=O)NC(=O)NCc2ccccc2)cc1OC	3	-36	1.3	0.78	.	-7	.	.	.
CC(C)c1c(C(=O)N/N=C/C=C/c2ccccc2)nnn1-c1nonc1N	10	.	3.9	.	i	1	-16	-36	1.4
COc1ccc(C[C@H]2CN3C(=NC[C@H]3C)N2CCNC(=O)CCC2CCCCC2)cc1	9	3.9	-1.7	.	i	-9	-27	-60	19
CC(N)C12CC3CC(CC(C3)C1)C2 (stereo unspecified)	7&8	5.0&0.3	4.2&-2.3	0.65&0.72	i	-2&12	11&6	0&13	-1.3&0.5
OC(COc1ccc(Cl)c2ccccc12)CN1CCN(c2ccccn2)CC1 (stereo unspecified)	2	1.1	-0.7	0.66	.	-7	.	.	.
Cc1[nH]cnc1CSCc1ccc(F)cc1	-3	1.1	-2.4	0.66	.	-5	.	.	.
Cc1ccc2c(c1)C(=O)CC(O)(C(F)F)O2 (stereo unspecified)	4	-47	1.0	0.65	i	0	18	9	1.5
COCCNC(C(=O)Nc1ccc(C)cc1[N+](=O)[O-])c1ccccc1 (stereo unspecified)	-4	3.3	2.0	0.7	i	-11	7	6	0.9
Cc1cc(C)n(CC(=O)n2c3ccccc3c3ccccc32)n1	6	3.6	2.2	0.72	.	-1	.	.	.
CCOc1c2ccc(C(=O)NCc3ccc4c(c3)OCO4)cc2nn1C	-2	-40	5.0	0.69	i	.	3	7	-4.0
O=C(c1ccco1)N1CCN(C(=O)c2ccccc2NS(=O)(=O)c2ccc(F)cc2)CC1	-11	0.7	-3.2	0.69	i	11	4	5	-3.4
CCC(CC)c1nnc(NC(=O)C2CC(=O)N(CCc3ccc(F)cc3)C2)s1 (stereo unspecified)	0	2.1	4.0	0.68	i	-4	-19	-12	16
COc1cc(CC(=O)OCC(=O)Nc2cc([N+](=O)[O-])ccc2F)cc(OC)c1OC	-2	1.1	2.9	0.73	i	7	10	9	1.6
O=C(NCCN1C(=O)S/C(=C\c2cccs2)C1=O)[C@H](Cc1ccccc1)N1C(=O)c2ccccc2C1=O	.	1.9	.	0.69	i	-1	-11	0	-1.1
S=C1NC2(CCCCC2)NN1c1ccccc1	5	0.7	-1.9	0.63	i	98*	7	4	4.7
CN(CC(=O)Nc1ccc(OC(F)(F)F)cc1)C(=O)C1CCC1	-7	1.5	-0.2	0.67	i	.	.	.	.
CCN(C(=O)COc1cccc(-n2cnnn2)c1)C1CCS(=O)(=O)C1 (stereo unspecified)	5	5.1	0.3	0.69	i	-33	9	11	-0.3
C=CCC1=C/C(=C\c2c(N)n3nc(CC(=O)N4CCCC4)sc3nc2=O)C=C(OC)C1=O	5	5.8	16	0.66	i	50	-4	1	-2.7
Fc1cccc(-n2ncc(-c3nnnn3-c3ccccc3)c2C(F)(F)F)c1	-30	2.0	-1.3	0.72	.	-3	.	.	.
CCC(Sc1nccn1C)C(=O)Nc1cccc2ccccc12 (stereo unspecified)	6	-1.8	2.2	0.64	.	-4	.	.	.
CCOC(=O)c1ccc(CNC(=O)Cn2nnc(-c3cccc(C)c3)n2)o1	6	-0.5	1.7	0.7	.	-3	.	.	.
CCC(CC)C(=O)Nc1nnc(-c2cccs2)s1	-15	-8.6	-3.8	0.74	.	0	.	.	.
Cc1ccnc(NC(=O)CCC(=O)N(CC(=O)NCc2ccccc2)c2ccc3c(c2)OCO3)c1	-10	0.6	-1.0	0.72	.	-1	.	.	.
COc1ccc(C(=O)O/N=C(\N)c2cccc(C)c2)cc1OC	-1	4.3	-2.3	0.64	i	-8	-21	-40	-7.1
Cc1cccc(CNC(=O)Nc2nnc([C@@H]3C[C@H](O)[C@@H](CO)O3)s2)c1	.	.	1.9	.	i	.	8	6	-1.6
Cc1ccc[n+](CC(=O)Nc2cccc(Cl)c2)c1	5	3.0	3.7	0.7	i	-2	9	5	-1.0
COc1cccc(CNC(=O)[C@@H]2CCCN2C(=O)[C@@H]2CCCN2)c1	.	.	1.5	.	i	.	6	13	-3.0
COc1ccccc1N(C)S(=O)(=O)c1ccc(C(=O)OCC(N)=O)cc1	15	-0.3	-1.3	0.7	i	-22	-3	-6	2.4
O=C(Nc1ccc2c(c1)OCO2)C(c1ccccc1)N1CCC2(CC1)OCCO2 (stereo unspecified)	2	0.4	174	0.72	.	-3	.	.	.
COc1cc(C(=O)N/N=C/c2ccc(OC)c(CN3CCN(c4ccc(F)cc4)CC3)c2)ccc1O	5	.	-2.5	.	i	60	-12	-9	-1.2
COc1ccc(OC)c(-c2nnc(SCC(=O)N3CCCc4ccccc43)o2)c1	-1	1.3	6.4	0.7	.	-3	.	.	.
CCOc1ccc(/C=C/C(=O)c2cc(Br)ccc(=O)c2O)cc1	15	5.6	-6.6	0.69	i	96*	-25	-30	-9.2
O=C(NCc1ccc2c(c1)OCO2)c1ccc(COc2cc(Cl)ccc2Cl)o1	-2	3.7	-2.2	0.71	.	5	.	.	.
CC[C@H](C)[C@H]1CNC(=S)N1CC1CCN(CC)CC1	.	.	-4.1	.	i	.	5	12	2.4
CCC(=O)Nc1ccccc1C(=O)N1CCCC1	-8	-0.7	-0.8	0.7	.	-1	.	.	.
Cc1nn(CC(=O)c2ccc(Cl)cc2Cl)c(C)[n+]1N	14	2.7	-0.3	0.63	i	.	8	5	-2.3
CC1CCC2C(=O)N(c3ccc(C(=O)NCc4ccccc4)cc3)C(=O)C2C1 (stereo unspecified)	1	2.4	3.7	0.65	.	-6	.	.	.
Cc1ccc(C)c(OCc2cc(C(=O)N3CCN(C(=O)c4ccco4)CC3)no2)c1	-5	2.0	-4.6	0.71	i	-3	-15	-4	-4.1
C=CCC(O)(CCN1CCCCC1)c1ccccc1 (stereo unspecified)	4	3.3	-0.4	0.76	.	-13	.	.	.
CN(C)CCC(C(=O)c1ccccc1)c1ccncc1 (stereo unspecified)	1	3.8	1.3	0.68	i	.	11	13	4.3

Exported in markdown: three of the compounds above
| molecule | B2AR ag | UCH37 inh | HNF4A DNA FP | Ecoli growth | FGF22 binding | ALR H2O2 inh | Ecoli rRNA inh | Ecoli rRNA inh OD600 | Ecoli rRNA inh RFP |
| --- | --- | --- | --- | --- | --- | --- | --- | --- | --- |
| Cc1nn(CC(=O)c2ccc(Cl)cc2Cl)c(C)[n+]1N | 14 | 2.7 | -0.3 | 0.63 | i | . | 8 | 5 | -2.3 |
| Cc1cccc(CNC(=O)Nc2nnc([C@@H]3C[C@H](O)[C@@H](CO)O3)s2)c1 | . | . | 1.9 | . | i | . | 8 | 6 | -1.6 |
| CC[C@H](C)[C@H]1CNC(=S)N1CC1CCN(CC)CC1 | . | . | -4.1 | . | i | . | 5 | 12 | 2.4 |

Remaining list, next part
SMILES	B2AR ag	UCH37 inh	HNF4A DNA FP	Ecoli growth	FGF22 binding	ALR H2O2 inh	Ecoli rRNA inh	Ecoli rRNA inh OD600	Ecoli rRNA inh RFP
CCOc1ccc(-n2c(=O)[nH]cc(C(=O)N3CCCc4ccccc43)c2=O)cc1	0	3.9	2.9	0.7	.	-8	.	.	.
O=[N+]([O-])c1cccnc1N1CCOCC1	2	3.2	4.5	0.72	.	-27	.	.	.
COc1ccc(C2C(C(C)=O)=C(O)C(=O)N2c2nc3ccccc3s2)cc1OC (stereo unspecified)	4	13	9.3	0.71	i	13	-16	-5	-2.5
COc1ccccc1Cn1c(=S)[nH]c2cc(C(=O)NCCN(C)C)ccc2c1=O	8	1.0	2.5	0.6	i	.	-6	-4	0.0
CN(C)C(CNC(=O)CCc1nc2cc(Cl)ccc2n(Cc2ccccc2)c1=O)c1ccccc1 (stereo unspecified)	20	-5.2	4.6	0.7	i	-2	-13	-22	-0.6
Fc1ccc(CSc2nnc(-c3cccnc3)n2Cc2ccco2)cc1	-3	0.7	0.4	0.64	.	31	.	.	.
O=C(c1cc2ccccc2oc1=O)N1CCN(c2ccc(N3CCOCC3)nn2)CC1	-3	6.5	-1.9	0.72	i	-4	-1	9	-2.6
Oc1ccc(Br)cc1CNc1nccs1	-4	3.4	1.6	0.64	i	0	3	1	-1.1
COc1ccc(C(=O)NCCNc2nc3cc(C)c(C)cc3cc2C)cc1	11	-23	-0.6	0.68	i	-18	4	2	-1.3
CC1CCN(S(=O)(=O)c2cccc(-c3csc(-c4cccnc4)n3)c2)CC1	2	4.4	2.2	0.66	.	-24	.	.	.
CCCCn1c(NCc2cccs2)nc2ccccc21	-8	-1.4	-0.3	0.69	i	49	-13	-8	-4.1
Cc1ccccc1Cn1c(C)c(C(=O)NCCC#N)sc1=O	.	.	-1.5	.	i	.	11	8	-1.4
O=C(NCCCCCCCCCNC(=O)C(F)(F)F)C(F)(F)F	6	0.7	-2.2	0.62	.	-10	.	.	.
COC(=O)c1[nH]nc2c1C(=O)N(Cc1ccccc1)C2=O	1	5.6	1.9	0.75	.	7	.	.	.
Cc1cc(C)n2nc(CNS(=O)(=O)c3ccc(C(C)(C)C)cc3)nc2n1	.	.	2.8	.	i	.	-3	0	-1.2
O=C(Nc1nnc(-c2ccc(Cl)cc2)o1)c1cccc(N2C(=O)CCC2=O)c1	11	7.0	5.7	0.65	.	-2	.	.	.
CCCCNC(=O)c1oc2ccc(S(=O)(=O)N3CCCC3)cc2c1C	13	2.5	-3.2	0.67	i	4	-11	-4	-1.9
O=C(OCC(=O)N1CCOCC1)c1ccc2ccccc2c1	-6	.	-5.8	.	i	3	-4	-2	-2.9
Cc1ccc(CNC(=O)c2cc(=O)c3ccccc3o2)cc1	0	2.2	-2.0	0.69	i	-10	2	11	0.1
COc1ccc(OC)c(C(=O)c2ccc(C(=O)N3CCN(Cc4csc(C)n4)CC3)cc2)c1	-3	1.2	6.5	0.67	i	-7	-2	-5	-0.6
CC1CCc2c(nc3ncnn3c2NCCc2ccccc2F)C1 (stereo unspecified)	-8	-0.9	-0.7	0.69	i	-1	-4	-10	-6.8
CN1CCc2c(sc(/N=C/c3c[nH]c4ccccc34)c2C(N)=O)C1	11	.	32	.	i	-8	.	.	.
Cc1nc(=O)cc(-c2ccccc2)n1-c1ccccc1	0	0.0	-0.7	0.63	i	-2	11	4	-1.3
COc1ccc(CN(C(=O)CSc2nnc(-c3c[nH]c4ccccc34)o2)c2ccc(F)cc2)cc1OC	26	8.4	-0.3	0.79	.	-4	.	.	.
Cn1cc(Br)c(C(=O)NNC(=O)c2ccccc2)n1	-2	0.5	0.0	0.73	.	2	.	.	.
CC(C)C(c1nnnn1C1CCCC1)N1CCC(C(N)=O)CC1 (stereo unspecified)	5	2.2	4.4	0.63	i	-6	14	11	-0.6
